Mtb betalactam: beta-lactam sensitization of Mtb H37Rv. AID 434955. M. tuberculosis H37Rv growth with meropenem, percent inhibition; hits of this screen are not shown here. inhibition, % at 25 µM. 0.27% of 330,000 active;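 active = about 74% or more and at least 40 points above the plate without the antibiotic, then above 30% in a dose series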;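 also: growth measured after seven days incubation then overnight dye step; 0% = bacteria only wells and 100% = bacteria with antibiotic; twin plates without the antibiotic show which effects depend on it; some results filed as inactive read as strong as hits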
YopH PTP inh: blocks Yersinia enterocolitica YopH tyrosine phosphatase. fluorescence Ex485/Em525. inhibition, %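 (about 10 µM by stock and volumes)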. 0.16% of 140,000 active;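 active = inhibition of 50% or more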;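 also: controls were vehicle for no effect and minimum signal wells for full effect; inactives centre near -20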
RecA intein inh: inhibitors of M. tuberculosis RecA intein splicing. P9WHJ3. cell-free RecA intein splicing, fluorescence. inhibition, %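 (about 9 µM by stock and volumes)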. 0.75% of 290,000 active. AID 2221; in the data active = inhibition above about 30%;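 also: 0% = vehicle wells and 100% = reference inhibitor control wells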
Target sequence (P9WHJ3 whole entry, looked up): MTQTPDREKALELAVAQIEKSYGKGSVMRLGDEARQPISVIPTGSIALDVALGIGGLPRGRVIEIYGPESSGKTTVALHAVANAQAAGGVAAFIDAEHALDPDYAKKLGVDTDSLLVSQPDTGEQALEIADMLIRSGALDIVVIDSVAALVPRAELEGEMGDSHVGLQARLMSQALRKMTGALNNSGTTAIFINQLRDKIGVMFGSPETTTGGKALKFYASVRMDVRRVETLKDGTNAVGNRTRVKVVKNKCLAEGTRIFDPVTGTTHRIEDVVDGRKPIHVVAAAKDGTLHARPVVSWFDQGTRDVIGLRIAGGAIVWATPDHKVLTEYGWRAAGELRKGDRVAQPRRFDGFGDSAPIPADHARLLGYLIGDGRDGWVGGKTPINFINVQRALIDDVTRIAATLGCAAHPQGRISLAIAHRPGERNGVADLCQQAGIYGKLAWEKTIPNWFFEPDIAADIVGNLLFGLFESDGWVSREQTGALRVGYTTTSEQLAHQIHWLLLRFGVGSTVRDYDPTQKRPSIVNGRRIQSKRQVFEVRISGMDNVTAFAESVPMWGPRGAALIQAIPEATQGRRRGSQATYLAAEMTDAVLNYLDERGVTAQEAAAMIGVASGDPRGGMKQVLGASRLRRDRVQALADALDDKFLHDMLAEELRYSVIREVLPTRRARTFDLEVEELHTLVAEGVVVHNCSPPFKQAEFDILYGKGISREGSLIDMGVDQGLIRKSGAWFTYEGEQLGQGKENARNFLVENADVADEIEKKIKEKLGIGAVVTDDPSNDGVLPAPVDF
Mtb H37Rv: M. tuberculosis H37Rv growth inhibitors, H37Rv strain (AID 1626); inhibition, % at 10 µM; hits with a dose series show IC50 in µM; M. tuberculosis H37Rv growth inhibition; higher % means a stronger effect; 0.95% of 220,000 active;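 active = confirmed in a dose series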;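 also: bacteria incubated seven days before Alamar blue readout; 0% = bacteria only wells and 100% = bacteria with antibiotic wells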
Arbovirus anti: arbovirus infection inhibition. arbovirus infection cell-based antiviral screen. inhibition, % at 10 µM. 0.37% of 200,000 active;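 active = inhibition from about 30%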;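 also: bluetongue infection of BSR cells; cell survival read as ATP light after 72 h; 0% = infected wells without compound and 100% = uninfected wells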
The depositor's hits bear a star; x = no result given.

SMILES	Mtb betalactam	YopH PTP inh	RecA intein inh	Mtb H37Rv	Arbovirus anti
CN(CC1COc2ccccc2O1)C(=O)c1ccc(N(C)C)cc1 (centres undefined)	-1.4	x	1.4	8.4%	-2.2
O=C(c1cc2ccccc2o1)N1CCN=C1SCc1cccc(F)c1	5.6	-34.7	x	15.9%	0.2
O=C(O)c1ccc(N2CC3CC(C2)c2cccc(=O)n2C3)c(NC(=S)Nc2ccc(Br)cc2)c1 (centres undefined)	2.5	x	8.8	-9.7%	7.3
CC(=O)c1ccccc1Oc1nc(CN2CCOCC2)nc2scc(-c3cccs3)c12	5.1	-24.0	2.4	-2.0%	-12.1
Cc1sc2nc(CN(Cc3cccs3)C(=O)NC3CCCCC3)[nH]c(=O)c2c1C	8.4	6.5	9.0	5.1%	-14.0
CC(C)C(C(=O)Nc1nccs1)N1C(=O)c2ccccc2C1=O (centres undefined)	-1.6	x	3.8	-7.1%	2.1
CNC(=O)c1cc(Cl)c(OC)c(OC)c1	-1.2	-6.4	-0.3	-3.6%	3.5
CCCCNC(=O)COC(=O)c1ccc(F)cc1Cl	78.4	x	-2.4	10.1%	2.0
Cc1ccccc1-c1oc(C)c(C)[n+]1[O-]	-9.6	x	-0.3	-6.6%	2.1
Cc1cc2nc(Sc3c([N+](=O)[O-])nc(C)n3Cc3ccccc3)[nH]c2cc1C	49.8	-3.2	46.4*	14.0%	16.0
COc1ccc(C(=O)N/N=C/c2c(C)nn(-c3ccccc3)c2OC)cc1	-5.4	x	0.3	x	x
O=C(CC1OC(=O)c2ccccc21)Nc1ccc(Cl)c(S(=O)(=O)N2CCCCC2)c1 (centres undefined)	-4.9	x	2.9	x	x
COc1ccc(N2C(=O)C(Cl)=C(N(CCO)Cc3ccccc3)C2=O)cc1	-1.1	-14.3	x	-6.4%	7.5
C=CCn1c(SCC(=O)Nc2cccc(S(=O)(=O)N(C)c3ccccc3)c2)nnc1C1CC1	-0.9	x	0.4	x	x
CCOc1ccc(C(C)(C)C)cc1S(=O)(=O)N1CC(C)OC(C)C1 (centres undefined)	-7.5	-28.4	5.5	-1.4%	-6.0
Oc1ccc2ccccc2c1/C=N/Nc1nnc(-c2ncc[nH]2)c2ccccc12	12.8	6.9	-0.4	-1.8%	-39.1
COc1ccccc1CNC(=O)c1cccnc1	-2.3	x	0.6	x	x
Cc1ccc(C)c(S(=O)(=O)Nc2ccc3sc(C)nc3c2)c1	4.7	-23.0	x	5.7%	0.1
O=C(COc1ccc(S(=O)(=O)NC2CCCCC2)cc1)NCC1CCCO1 (centres undefined)	1.9	-22.4	0.6	-2.0%	8.0
O=C(O)/C=C/c1ccc(-n2ccnc2)cc1	0.5	x	0.5	-1.2%	x
CC(C)OCCCNC(=O)c1ccc(NS(C)(=O)=O)cc1	-12.2	-29.3	2.8	18.9%	0.3
CCCc1[nH]c(=O)c(C#N)c2c1COC(C)(C)C2	-0.1	-38.0	-3.0	-11.6%	5.8
COc1cccc(N(CC(=O)N2CCN(c3ccccc3OC)CC2)S(C)(=O)=O)c1	1.3	-15.1	1.5	1.3%	4.8
CC(C)CN(C(=O)c1ccc(S(=O)(=O)N2CCOCC2)cc1)C1CCS(=O)(=O)C1 (centres undefined)	-14.4	x	2.3	x	x
COc1cc(SC)ccc1C(=O)Nc1ccc(S(=O)(=O)N2CCCC2)cc1	6.1	-18.1	-0.2	-7.2%	-8.6
COc1ccc(C(=O)Nc2ccc3nc(N4CCN(C)CC4)cc(C)c3c2)c(OC)c1	87.8	x	-0.1	x	x
COc1ccc(S(=O)(=O)NC2CC2)cc1-n1cnnn1	-2.9	x	-58.8	-0.9%	-0.1
Cc1cccc(N2CCN(Cc3nc(-c4ccccc4Cl)oc3C)CC2)n1	-2.0	x	7.5	6.7%	13.6
Cc1nc2ccccc2c(=O)n1NC(=O)c1c(F)cccc1F	-2.2	x	4.1	x	x
O=C(c1ccc(S(=O)(=O)N2CCCC2)cc1)N1CCN(c2ccccc2)CC1	-4.1	x	0.9	x	x
COc1ccc(N(CC(=O)NCCc2ccc(OC)c(OC)c2)S(=O)(=O)c2c(C)noc2C)cc1	0.7	x	1.2	x	x
Cc1ccc(NC(NC(=O)c2cccnc2)C(Cl)(Cl)Cl)cc1 (centres undefined)	-3.5	-12.6	-1.2	12.4%	-8.0
O=C(N=c1ccn(-c2nc3ccccc3nc2NS(=O)(=O)c2ccc(Cl)cc2)cc1)c1cccs1	0.9	x	-291.6	-1.1%	x
O=C(CN1C(=O)NC2(CCCC2)C1=O)Nc1cccc(Cl)c1Cl	-1.8	x	1.9	x	x
Cc1ccc(C(=O)N(CCCN(C)C)c2nc3ccc(Cl)cc3s2)cc1C	30.1	x	1.0	76.1%	-25.1
CCOC(=O)Cc1c(C)c2c(C)nn(-c3ccccc3)c2oc1=O	-6.2	15.2	4.7	0.6%	-3.6
COc1ccnc(N2CCN(c3ccc(Cl)cc3)CC2)c1C#N	13.6	-38.5	-0.6	4.4%	-1.5
C=CCNC(=O)C(=O)NCCCN1CCOCC1	1.9	x	0.6	-3.7%	6.1
COc1ccc(-c2nc(C#N)c(N3CCCCC3)o2)cc1	25.6	x	-3.0	x	x
CCCOC1CCCN(Cc2nc(-c3ccc(C(=O)OC)cc3)no2)C1 (centres undefined)	6.6	x	0.1	-0.2%	x
O=C(C(Cc1ccccc1)N1C(=O)C2C3CCC(C3)C2C1=O)N1CCCCC1 (centres undefined)	1.0	-9.0	1.2	-5.9%	0.6
COc1ccc(-n2c(C)cc(C(=O)COc3ccc(C)nc3[N+](=O)[O-])c2C)cc1	3.8	-4.4	2.8	0.9%	-0.6
COC(=O)c1ccc(OC(=O)c2ccncc2)cc1O	0.2	x	-0.7	x	x
Cc1ccc(C(=O)N2CCN(c3ccccc3O)CC2)cc1S(=O)(=O)N1CCCCC1	-16.0	x	0.5	x	x
Cc1nn(C(C)C(=O)NCCc2ccco2)c(=O)c2nn(-c3ccccc3)c(C)c12 (centres undefined)	-4.1	x	-5.7	x	x
N#Cc1c(-c2ccc(F)cc2)nc2n(c1=O)CCS2	-8.3	-3.0	-1.4	-10.1%	11.9
COc1ccccc1C(=O)N/C(=C/c1ccccc1)C(=O)Nc1ccc(C(=O)O)cc1	2.3	x	-1.8	2.7%	6.6
CSc1ccc(S(=O)(=O)Nc2ccc3c4c(cccc24)CC3)cc1	-10.7	-5.9	1.8	10.2%	1.7
Cn1c(=O)cc(OCCCC(=O)N2CCN(c3ccccn3)CC2)c2ccccc21	-14.1	-31.9	4.0	-2.6%	-8.4
O=C1C=C(Nc2ccc(O)cc2)CC(c2ccco2)C1 (centres undefined)	0.5	-16.8	-2.9	6.6%	-21.8
COc1ccc(N2CCN(C(=O)c3ccc(CS(=O)(=O)c4ccc(Br)cc4)o3)CC2)cc1	-9.7	x	-4.0	x	x
COc1cc(NC(=O)c2ccc(C(=O)c3ccccc3)cc2)cc(OC)c1OC	-3.8	x	-5.1	x	x
Cc1cc([N+](=O)[O-])ccc1-c1ccc(C2Nc3ccccc3C(=O)N2O)o1 (centres undefined)	-6.2	-35.2	x	-8.3%	-30.9
O=c1cc(CSc2nnc(Nc3ccccc3)s2)nc2sccn12	7.7	0.9	x	-2.8%	8.8
COc1ccc(OC)c(/C=N\NC(=O)c2ccc(COc3ccc(C)cc3[N+](=O)[O-])o2)c1	-1.8	x	-0.8	x	x
CC1(C)Oc2cc(N)c([N+](=O)[O-])cc2O1	28.0	-50.1	-2.0	-2.4%	1.1
CC(C)S(=O)(=O)c1ccc(C(=O)Nc2ccc(F)cc2F)cn1	-3.3	x	0.1	-1.6%	5.6
Cc1cc(C)c2nc(-c3ccccn3)cc(C(=O)n3cccn3)c2c1	7.4	x	4.0	2.4%	0.5
Nc1nc2ccc(C(=O)NC3CCCCC3)cc2s1	4.0	-41.9	-1.7	-8.0%	3.1
COc1ccc(/C=C(\NC(=O)c2ccco2)C(=O)N2CCOCC2)cc1	-0.9	x	0.1	x	x

(cont.)
SMILES	Mtb betalactam	YopH PTP inh	RecA intein inh	Mtb H37Rv	Arbovirus anti
CCN(CC)S(=O)(=O)c1ccc(N/N=C(\C)c2cccnc2)nc1	-3.4	x	-0.1	x	x
O=C(C1CCCN(S(=O)(=O)c2cnc[nH]2)C1)N1CCN(Cc2ccccc2)CC1 (centres undefined)	-4.5	-34.5	x	-4.2%	0.3
COc1ccc(S(=O)(=O)N2CCCOC2CNC(=O)C(=O)NCc2ccccc2F)cc1C (centres undefined)	-8.3	x	2.4	x	x
O=S(=O)(Nc1n[nH]c(C(F)(F)F)n1)c1ccccc1	-4.5	x	-1.5	-4.6%	x
Cc1cc(NC(=O)c2ccccc2Cl)c(C(C)C)cc1O	-1.0	-31.4	4.8	-11.1%	0.7
Fc1ccccc1C1c2[nH]c3ccccc3c2CCN1Cc1cccn1-c1ncccn1 (centres undefined)	5.4	x	5.0	5.5%	-13.6
O=C(N/N=C1/CCSC1)c1cc(Br)ccc1O	-1.2	x	0.6	-6.2%	-0.5
COc1cccc(C(=O)N(Cc2ccccc2)Cc2cc3cc4c(cc3[nH]c2=O)OCCO4)c1	-7.0	-5.5	-0.5	-4.5%	-16.4
O=C(Nc1nnc(-c2cccnc2)o1)c1cccc(Cl)c1	91.4	x	-0.3	3.27µM*	2.7
CC1Cc2ccccc2N1C(=O)CSc1nc2ccccc2o1 (centres undefined)	-2.4	-42.5	x	-3.1%	4.9
O=C(NC(=S)Nn1cnnc1)c1ccccc1	2.7	x	0.4	x	x
CCOC(=O)N1CCN(C(=O)c2cccn3c(=O)c4sccc4nc23)CC1	-6.5	-28.6	x	-3.5%	-3.6
Cc1nc2sc3c(c2c(=O)o1)CC(C)(C)OC3	70.2	-11.3	-1.3	-2.6%	-0.2
C=CCNC(=S)NNC(=O)c1ccc(C)c(Cl)c1	5.5	x	4.3	-1.1%	-5.2
O=C(c1ccc(=O)[nH]c1)N(Cc1cccs1)C1(C(=O)NC2CCCC2)CCCCC1	3.5	21.0	1.3	7.6%	8.6
COC(=O)c1ccc(C2=NOC(C)(c3sc(-c4ccccc4)nc3C)C2)cc1 (centres undefined)	3.5	x	4.5	-5.8%	x
Cc1onc(-c2ccc(Cl)cc2)c1-c1ccnc(SCC(=O)Nc2ccc(C(C)C)cc2)n1	-0.5	x	1.6	4.9%	x
CC(C)C(=O)N(Nc1nc2ccccc2s1)C(=O)C(C)C	-4.7	-19.3	-3.2	7.0%	-10.3
CC(C)CN1CCCC(N2CCN(c3cccc(Cl)c3)CC2)C1 (centres undefined)	-0.7	x	-2.3	x	x
O=C(O)C1C2C=CC(O2)C1C(=O)Nc1ccc2c(c1)OCCO2 (centres undefined)	-2.1	-22.4	1.4	-8.5%	-3.7
CC(=O)NC(Cc1cc(C)ccc1C)C(=O)N1CCN(C(=O)c2ccccc2Br)CC1 (centres undefined)	1.7	x	0.8	3.4%	-3.4
CCCOc1ccc(Cl)cc1/C=C1/C(=O)ON=C1C	3.2	x	-2.7	x	x
Cc1ccc(S(=O)(=O)CCC(=O)Nc2nc3c(s2)CCCC3)cc1	-20.3	17.6	-2.2	6.2%	1.1
Cc1ccc(CNC(=O)c2nnn(CC(=O)Nc3cccc(C)c3C)c2N)cc1	0.6	x	-1.6	x	x
CCN(CC)CC(C)(C)COC(=O)c1oc2ccccc2c1C	3.0	x	1.1	0.3%	x
COc1ccc(NC(=O)c2cc(S(=O)(=O)N3CCCC3)cn2C)cc1Cl	1.4	x	-3.8	x	x
CCCn1c2ccccc2c2nnc(SC(CC)C(=O)Nc3cc(C)on3)nc21 (centres undefined)	-4.3	5.4	x	-7.2%	-2.9
Cc1nn(Cc2ccc(Cl)cc2)c(C)c1NC(=O)CCCn1nc(C)c([N+](=O)[O-])c1C	4.2	-18.0	-5.9	-3.4%	13.3
Cc1ccc(C)c(S(=O)(=O)N2CC(=O)Nc3ccccc32)c1	-1.2	-27.1	3.0	-10.4%	4.2
COc1ccc(NC(=O)CN2CCN(c3ccccc3C)CC2)cc1	1.0	x	2.1	x	x

Profiles, quoted from the list. Order of screens: Mtb betalactam	YopH PTP inh	RecA intein inh	Mtb H37Rv	Arbovirus anti
COc1ccc(NC(=O)c2cc(S(=O)(=O)N3CCCC3)cn2C)cc1Cl is listed with 1.4	x	-3.8	x	x
Cc1nn(Cc2ccc(Cl)cc2)c(C)c1NC(=O)CCCn1nc(C)c([N+](=O)[O-])c1C is listed with 4.2	-18.0	-5.9	-3.4%	13.3

Pulled one by one from the list above:
SMILES	Mtb betalactam	YopH PTP inh	RecA intein inh	Mtb H37Rv	Arbovirus anti
O=C(NC(=S)Nn1cnnc1)c1ccccc1	2.7	x	0.4	x	x
COc1ccc(-n2c(C)cc(C(=O)COc3ccc(C)nc3[N+](=O)[O-])c2C)cc1	3.8	-4.4	2.8	0.9%	-0.6
Cc1ccc(NC(NC(=O)c2cccnc2)C(Cl)(Cl)Cl)cc1 (centres undefined)	-3.5	-12.6	-1.2	12.4%	-8.0
O=C1C=C(Nc2ccc(O)cc2)CC(c2ccco2)C1 (centres undefined)	0.5	-16.8	-2.9	6.6%	-21.8

Assay outcomes: PubChem BioAssay, several laboratories

An excerpt; rates above refer to the full screens.
